From PubChem
Vaccinia inh – blocks a specific stage of Vaccinia orthopoxvirus infection; hit rate 0.01% among 89,000; Vaccinia-infected cells, mCherry/Venus stage reporter fluorescence; hits give low values; some inactives read as strong as hits; activity change (mCherry), % (no concentration beside the values);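 active = mCherry past -33% and 40 or more points under the early reporter, replicates agreeing; inconclusive = past -33% without that gap or agreement; tested in A549 cells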;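 note: scaled between vehicle wells and reference inhibitor wells; 23 nL library stock went into each well; one replicate is shown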
Vaccinia inh Venus – also measured in Vaccinia inh; calls as there; activity change (Venus), %; measured here: Venus reporter, other viral stage;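 negative = less Venus signal; first of two replicates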
The depositor's hits bear a star; ? = inconclusive; . = not tested or not shown; & = joins results of further samples.

SMILES	Vaccinia inh	Vaccinia inh Venus
O=C(NC1Cc2ccccc2C1)[C@H]1[C@H](CO)[C@H]2Cn3c(ccc(C4=CCCC4)c3=O)[C@@H]1N2CC1CC1	13.6	9.1
C[C@H](CO)N1C[C@H](C)[C@H](CN(C)S(=O)(=O)c2cccs2)OCc2cnnn2CCCC1=O	1.9	0.0
C[C@H]1CN([C@@H](C)CO)C(=O)c2cccc(NC(=O)C3CC3)c2O[C@@H]1CN(C)S(=O)(=O)c1ccccc1	3.2	4.6
Cc1noc(C)c1S(=O)(=O)Nc1cccc2c1O[C@@H](CN(C)S(C)(=O)=O)[C@@H](C)CN([C@@H](C)CO)C2=O	4.9	2.5
O=C(C[C@H]1CC[C@H]2[C@@H](COC[C@@H](O)CN2S(=O)(=O)c2ccccc2Cl)O1)NCc1ccccc1Cl	11.0	1.0
Cc1ccc(S(=O)(=O)N2CC[C@@H]3[C@H](CO)Nc4ccc(C#Cc5cccc(F)c5)cc4[C@@H]32)cc1	-3.4	1.6
C[C@H]1CN([C@@H](C)CO)S(=O)(=O)c2ccc(C3=CCCC3)cc2O[C@@H]1CN(C)C	-25.9	-22.7
C[C@H](CO)N1C[C@H](C)[C@@H](CN(C)C(=O)Cc2ccccc2)OCc2cnnn2CCCC1=O	20.7&7.3	12.4&5.1
Cc1noc(C)c1S(=O)(=O)Nc1ccc2c(c1)C(=O)N([C@@H](C)CO)C[C@@H](C)[C@@H](CN(C)C(=O)Nc1ccc(C(F)(F)F)cc1)O2	-13.2	-13.7
C[C@H](CO)N1C[C@H](C)[C@@H](CN(C)C(=O)Nc2ccc3c(c2)OCO3)Oc2ccc(NC(=O)C3CCCCC3)cc2CC1=O	1.0	11.1
C[C@H](CO)N1C[C@H](C)[C@@H](CN(C)Cc2ccc(C(=O)O)cc2)Oc2ncc(C3=CCCC3)cc2C1=O	18.4	15.5
Cc1noc(C)c1S(=O)(=O)N(C)C[C@H]1Oc2ccc(NS(=O)(=O)c3cn(C)cn3)cc2CC(=O)N([C@@H](C)CO)C[C@@H]1C	4.2	1.6
Cc1ccccc1-c1ccc([C@@H]2[C@H](CO)N3CCCCN(S(C)(=O)=O)C[C@@H]23)cc1	-9.5	-8.6
C[C@H]1CN([C@@H](C)CO)C(=O)c2cc(NS(=O)(=O)c3cn(C)cn3)ccc2O[C@H]1CN(C)C	6.8	1.9
C[C@H]1CN([C@@H](C)CO)C(=O)Cc2cc(NC(=O)CCC(F)(F)F)ccc2O[C@@H]1CN(C)S(=O)(=O)c1ccc(Cl)cc1	4.7	5.0
C[C@H]1CN([C@@H](C)CO)C(=O)c2cc(NC(=O)Cc3cn(C)c4ccccc34)ccc2O[C@H]1CN(C)Cc1ccc(Cl)c(Cl)c1	-24.9	-30.2
CCC(=O)N1C[C@@H](O)COC[C@H]2O[C@H](CC(=O)NC)CC[C@@H]21	23.4	10.4
CC(C)C(=O)Nc1ccc2c(c1)C(=O)N(C)[C@H]1CC[C@@H](CC(=O)NCC3CC3)O[C@H]1CO2	8.4	10.9
COc1ccccc1S(=O)(=O)N[C@@H]1C=C[C@@H](CC(=O)NCc2cccc(F)c2)O[C@H]1CO	5.5	4.7
CO[C@@H]1CN(C)C(=O)c2cc(NC(=O)C3CC3)ccc2OC[C@H](C)N(C(=O)c2ccncc2)C[C@@H]1C	9.8	2.1
O=C(C1CCCC1)N1CC2(C1)[C@H](c1ccccc1)[C@H](CO)N2Cc1ccccc1F	-21.6	-6.0
CCC(=O)Nc1ccc2c(c1)OC[C@H](C)N(C(=O)c1ccc(F)cc1)C[C@@H](C)[C@@H](OC)CN(C)C2=O	12.4	12.2
CO[C@@H]1CN(C)C(=O)c2cc(NC(=O)c3ccccc3F)ccc2OC[C@H](C)N(C(C)=O)C[C@H]1C	11.4	8.8
COc1cccc(NC(=O)C[C@H]2CC[C@@H]3[C@H](COc4ccc(NC(=O)C5CCOCC5)cc4C(=O)N3C)O2)c1	-4.4	7.8
O=C(C[C@@H]1C[C@@H]2c3cc(NC(=O)c4cccnc4)ccc3O[C@@H]2[C@H](CO)O1)NCc1cccc(F)c1	10.8	1.9
Next section.
SMILES	Vaccinia inh	Vaccinia inh Venus
CC(=O)Nc1ccc2c(c1)C(=O)N(C)[C@@H]1CC[C@H](CC(=O)NCc3ccccc3)O[C@@H]1CO2	2.1	0.3
COCC(=O)N1C[C@H]2[C@@H](c3ccccc31)[C@@H](CO)N2C(=O)C1CC1	7.7	2.9
C[C@H]1CN([C@@H](C)CO)S(=O)(=O)c2ccc(C3=CCCCC3)cc2O[C@@H]1CN(C)Cc1cccnc1	?	.
C[C@@H]1CN([C@@H](C)CO)C(=O)c2cc(NC(=O)Nc3ccc(C(F)(F)F)cc3)ccc2O[C@H]1CN(C)C	-18.0	-8.3
CO[C@@H](CN(C)S(=O)(=O)c1ccc(Cl)cc1)[C@H](C)CN(C(=O)Nc1ccccc1F)[C@@H](C)CO	1.7	1.3
C[C@H](CO)N1C[C@H](C)[C@H](CN(C)Cc2ccc(Oc3ccccc3)cc2)Oc2ccc(NC(=O)Nc3ccc4c(c3)OCO4)cc2C1=O	-21.8	-16.1
CC(=O)N(C)C[C@H]1Oc2ncc(C#CC(C)(C)O)cc2C(=O)N([C@H](C)CO)C[C@@H]1C	10.3	12.3
C[C@H](CO)N1C[C@H](C)[C@H](CN(C)C(=O)Nc2cccc3ccccc23)Oc2ccc(NC(=O)C3CCCCC3)cc2CC1=O	8.5	11.2
CC(C)NC(=O)Nc1cccc2c1O[C@H](CN(C)Cc1ccccc1)[C@H](C)CN([C@H](C)CO)C2=O	10.2	-2.6
COc1ccc(-c2ccc3c(c2)[C@H]2[C@H](CCN2S(=O)(=O)c2ccc(F)cc2)[C@H](CO)N3C)cc1	?	.
C[C@H](CO)N1C[C@H](C)[C@@H](CN(C)Cc2ccc(F)cc2)Oc2ncc(C#CCN(C)C)cc2C1=O	1.1	-5.7
CN1c2ccc(-c3cccc(C#N)c3)cc2[C@@H]2[C@@H](CCN2C(=O)Cc2ccccn2)[C@H]1CO	1.7	11.2
C[C@H]1CCCCO[C@H](CN(C)S(=O)(=O)c2cccs2)[C@@H](C)CN([C@@H](C)CO)C(=O)c2cc(N(C)C)ccc2O1	-10.0	-5.0
Cc1noc(C)c1NC(=O)N(C)C[C@@H]1OCCCC[C@H](C)Oc2ccc(NS(=O)(=O)c3ccc(Cl)cc3)cc2C(=O)N([C@H](C)CO)C[C@@H]1C	11.1	-1.6
C[C@H]1CN([C@@H](C)CO)C(=O)c2cc(NC(=O)NC3CCCCC3)ccc2O[C@@H]1CN(C)C(=O)Nc1ccccc1	9.4	4.5
C[C@H]1CCCCO[C@H](CN(C)C(=O)CCCN(C)C)[C@@H](C)CN([C@@H](C)CO)C(=O)c2cc(NS(=O)(=O)c3cccs3)ccc2O1	-18.2	-26.4
O=C(Nc1ccc(F)cc1)N[C@H]1CC[C@H](CCn2cc(C3(O)CCCC3)nn2)O[C@H]1CO	-6.4	-9.7
COc1ccc(CN(C)C[C@@H]2Oc3ccc(NC(=O)Cc4cn(C)c5ccccc45)cc3C(=O)N([C@H](C)CO)C[C@H]2C)cc1	-4.1	0.7
C[C@@H]1CCCCO[C@@H](CN(C)C(=O)c2ccccc2)[C@H](C)CN([C@@H](C)CO)C(=O)c2cc(NC(=O)Nc3ccccc3)ccc2O1	-20.8	-17.1
C[C@@H]1CCCCO[C@@H](CN(C)S(C)(=O)=O)[C@H](C)CN([C@H](C)CO)C(=O)c2cc(NC(=O)Nc3ccccc3)ccc2O1	12.1	8.0
COC(=O)C[C@@H]1C[C@H]2c3cc(NC(=O)Nc4ccccc4F)ccc3O[C@H]2[C@H](CO)O1	-28.5	8.3
C[C@@H]1CN([C@@H](C)CO)C(=O)c2cc(NS(=O)(=O)c3ccc(F)cc3)ccc2O[C@@H](C)CCCCO[C@H]1CN(C)C(=O)CCCN(C)C	7.6	-6.6
C/C=C/c1ccc([C@@H]2[C@@H](CO)N(C(=O)CC)[C@H]2CNC(=O)CC)cc1	-7.3	-3.9
COCC(=O)Nc1ccc2c(c1)C(=O)N(C)C[C@H](OC)[C@@H](C)CN(C(=O)c1ccncc1)[C@@H](C)CO2	13.2	8.0
C[C@@H]1CN([C@@H](C)CO)S(=O)(=O)c2ccc(C#C[C@@H](C)O)cc2O[C@@H]1CN(C)Cc1ccccc1	-23.4	-25.7

Full records, looked up by structure:
CC(=O)Nc1ccc2c(c1)C(=O)N(C)[C@@H]1CC[C@H](CC(=O)NCc3ccccc3)O[C@@H]1CO2 across the screens: Vaccinia inh: 2.1; Vaccinia inh Venus: 0.3
COc1ccc(CN(C)C[C@@H]2Oc3ccc(NC(=O)Cc4cn(C)c5ccccc45)cc3C(=O)N([C@H](C)CO)C[C@H]2C)cc1 across the screens: Vaccinia inh: -4.1; Vaccinia inh Venus: 0.7

Part of the list above, reformatted:
SMILES,Vaccinia inh,Vaccinia inh Venus
C[C@@H]1CCCCO[C@@H](CN(C)S(C)(=O)=O)[C@H](C)CN([C@H](C)CO)C(=O)c2cc(NC(=O)Nc3ccccc3)ccc2O1,12.1,8.0
CC(=O)Nc1ccc2c(c1)C(=O)N(C)[C@@H]1CC[C@H](CC(=O)NCc3ccccc3)O[C@@H]1CO2,2.1,0.3
C[C@H](CO)N1C[C@H](C)[C@@H](CN(C)Cc2ccc(F)cc2)Oc2ncc(C#CCN(C)C)cc2C1=O,1.1,-5.7

(further entries)
SMILES	Vaccinia inh	Vaccinia inh Venus
O=C(C1CCC1)N1CC2(C1)[C@H](c1ccccc1)[C@H](CO)N2C(=O)CC1CC1	4.7	2.2
N#C[C@@H]1[C@@H](c2ccc(-c3ccc(F)cc3)cc2)[C@@H](CO)N1c1nc(-c2ccccc2)cs1	-12.9	0.7
COc1ccc(S(=O)(=O)N[C@@H]2CC[C@@H](CC(=O)O)O[C@H]2CO)cc1	5.9	11.0
C[C@@H]1CN([C@H](C)CO)C(=O)c2cc(-c3cccc(F)c3)cnc2O[C@H]1CN(C)C(=O)C1CCOCC1	20.6	19.8
COc1ccccc1-c1ccccc1[C@H]1[C@H](C#N)N(C(=O)CN(C)C)[C@H]1CO	15.4	10.1
O=C(c1ccccn1)N1CC[C@@H]2[C@H](CO)Nc3ccc(C#Cc4ccccc4)cc3[C@@H]21	-4.9	8.1
C[C@@H]1CCCCO[C@H](CN(C)C(=O)Nc2cccc3ccccc23)[C@@H](C)CN([C@H](C)CO)C(=O)c2cc(NS(=O)(=O)c3ccc(F)cc3)ccc2O1	29.2	14.4
CCCC#Cc1ccc2c(c1)O[C@H](CN(C)C(=O)c1ccncc1)[C@H](C)CN([C@H](C)CO)S2(=O)=O	-2.9	-6.6
O=C(C[C@H]1CC[C@H](NC(=O)Nc2cccc(F)c2)[C@H](CO)O1)NCC1CCCCC1	-12.6	-5.3
C[C@@H]1CN([C@@H](C)CO)S(=O)(=O)c2ccc(C3=CCCC3)cc2O[C@@H]1CN(C)Cc1ccncc1	-0.7	2.2
C[C@@H]1CN([C@H](C)CO)C(=O)c2cc(NC(=O)Nc3ccc4c(c3)OCO4)ccc2O[C@H]1CN(C)C	20.6	10.2
C[C@@H]1CN([C@@H](C)CO)C(=O)Cc2cc(NC(=O)C3CCCCC3)ccc2O[C@H]1CN(C)C(=O)Nc1ccccc1	?	.
COCC#Cc1ccc2c(c1)O[C@@H](CN(C)C(=O)Nc1ccc(OC)cc1)[C@H](C)CN([C@@H](C)CO)S2(=O)=O	5.0	-10.7
Cc1noc(C)c1NC(=O)Nc1cccc2c1O[C@H](CN(C)S(=O)(=O)c1ccc(F)cc1)[C@@H](C)CN([C@@H](C)CO)C2=O	3.8	0.7
COCCOC(=O)N1C(=O)[C@@]2(c3ccccc31)[C@H](C(=O)N1CCN(c3ncccn3)CC1)[C@H]1C(=O)O[C@H](c3ccccc3)[C@H](c3ccccc3)N1[C@@H]2c1ccc(O)cc1	18.2	1.1
COc1ccccc1C(=O)Nc1ccc2c(c1)OC[C@H](C)NC[C@@H](C)[C@@H](OC)CN(C)C2=O	-6.3	-7.6
O=C(Nc1ccc(Cl)cc1)N[C@H]1CC[C@H](CCNS(=O)(=O)c2ccccc2F)O[C@@H]1CO	-15.1	-9.0
C[C@H]1CN([C@@H](C)CO)C(=O)c2cc(-c3ccncc3)cnc2O[C@H]1CN(C)C(=O)c1ccccc1F	12.5	14.0
C[C@H]1CN([C@@H](C)CO)C(=O)c2cc(-c3cccc(F)c3)cnc2O[C@H]1CN(C)Cc1ccncc1	13.5	9.0
Cc1ccc(S(=O)(=O)N(C)C[C@H]2OCCCC[C@@H](C)Oc3ccc(NS(=O)(=O)c4cn(C)cn4)cc3C(=O)N([C@H](C)CO)C[C@@H]2C)cc1	14.5	7.4
C[C@@H]1CN([C@@H](C)CO)C(=O)c2cccc(NS(=O)(=O)c3ccc(Cl)cc3)c2O[C@@H]1CN(C)Cc1ccncc1	12.1	4.7
C[C@H]1CN([C@@H](C)CO)S(=O)(=O)c2ccc(C#Cc3cccnc3)cc2O[C@H]1CN(C)C	5.0	4.3
CCC(=O)N1[C@@H](CO)[C@H](c2ccccc2)C12CN(C(=O)c1ccc(F)cc1)C2	2.8	14.5
Cc1noc(C)c1S(=O)(=O)Nc1ccc2c(c1)C(=O)N([C@H](C)CO)C[C@@H](C)[C@@H](CN(C)S(=O)(=O)c1ccccc1)O2	8.5	3.2
C[C@H]1CN([C@@H](C)CO)S(=O)(=O)c2ccc(C3=CCCCC3)cc2O[C@@H]1CN(C)S(=O)(=O)c1ccc(F)cc1	?	.
CC(C)CC#Cc1cnc2c(c1)C(=O)N([C@H](C)CO)C[C@H](C)[C@@H](CN(C)C(=O)c1ccc(F)cc1)O2	-14.5	-13.1
CC(C)C#Cc1ccc([C@@H]2[C@@H](C#N)N(C(=O)C3CCOCC3)[C@H]2CO)cc1	7.0	12.7
COc1ccc(CN(C)C[C@@H]2Oc3ccc(NS(=O)(=O)c4c(C)noc4C)cc3C(=O)N([C@H](C)CO)C[C@H]2C)cc1	2.6	-0.7

Only part of the results is shown, so the mix of outcomes need not match the whole.
